Screens: PubChem BioAssay, Southern Research Institute
total CFTR – total CFTR protein upregulators, primary screen, cell-based, HeLa F508del-CFTR, immunofluorescence, viability (AID 1224863) | HeLa F508del-CFTR, immunofluorescence total CFTR, 24 h; by the record results were divided by relative cell number; some inactives read as strong as hits | calls, or highest fold increase where a dose series was run | hit rate 0.1% among 10,000; in the data nearly all actives have a first-pass fold increase above 1.5; a few of its hits are not listed in these tables;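 also: total CFTR protein by anti-CFTR immunofluorescence in fixed cells; first pass at 25 µM or 10 µg/mL by library and series up to twice that; 1 = untreated cells; first-pass hits also needed half or more of the cells alive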
total CFTR fold 25 µM – recorded beside total CFTR, whose call it bears; fold increase; measured here: primary screen single dose 25 uM; library dosed in µM
total CFTR fold 10 ug/mL – further read-out of total CFTR, marked with its call; fold increase; measured here: primary screen 10 ug/mL
total CFTR viability 25 µM – recorded beside total CFTR, whose call it bears; viability, %; measured here: primary viability 25 uM; library dosed in µM;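 0% = killed and 100% = untreated cells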
total CFTR viability 10 ug/mL – also measured in total CFTR; calls as there; viability, %; measured here: primary viability 10 ug/mL;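 0% = killed and 100% = untreated cells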
Numbers without * were called inactive; i = inactive; / = not tested or not shown; & = joins results of further samples. An excerpt (hit frequency here may not be typical).

SMILES	total CFTR	total CFTR fold 10 ug/mL	total CFTR viability 10 ug/mL	others
COc1ccc(OCCOn2nnc3ccc(S(C)(=O)=O)cc32)cc1	i	0.93	92
Cc1cc(C(=O)CN2C(=O)NC3(CCCc4sccc43)C2=O)c(C)n1Cc1ccco1 (stereo not drawn)	i	1.1	96
N#CCSc1nncn1C1CC1	i	1	99
Cc1cc(C(=O)CN2C(=O)C(=O)N(CC(C)C)C2=O)c(C)n1Cc1ccco1	i	1	92
O=S(=O)(Nc1ccccc1Br)c1cc(Cl)sc1Cl	i	0.81	85
COc1ccc(OCC(O)CSc2nc3c4ccccc4ncn3n2)cc1 (stereo not drawn)	i	1	100
CN(Cc1ccccc1F)c1ccc2nnc(C(F)(F)F)n2n1	i	0.95	93
COC(=O)CSCc1nc2sc(C)c(C)c2c(=O)[nH]1	i	1	97
CC(=O)OC1CC2CCC1(C)C2(C)C (stereo not drawn)	i	/	/	total CFTR fold 25 µM=1.1;total CFTR viability 25 µM=89
CO[C@@]1(NC(=O)Cc2cccs2)C(=O)N2C(C(=O)O)=C(COC(N)=O)CS[C@@H]21	i	/	/	total CFTR fold 25 µM=1;total CFTR viability 25 µM=71
CCCn1ccnc1SCCN1C(=O)NC(C)(C)C1=O	i	1.1	86
N#CC1(c2ccc(NC(=O)c3cccnc3NCc3ccncc3)cc2)CCCC1	i	/	/	total CFTR fold 25 µM=0.95;total CFTR viability 25 µM=81
NC(=O)C1CCCN1C(=O)C(Cc1cnc[nH]1)NC(=O)C1CCC(=O)N1 (stereo not drawn)	i	/	/	total CFTR fold 25 µM=1.2;total CFTR viability 25 µM=86
N#Cc1ccc(Nc2cccc(CN3CCOC3=O)c2)c([N+](=O)[O-])c1	i	0.87	82
COc1ccc(Br)cc1Cn1cnc2c1c(=O)n(C)c(=O)n2C	i	0.92	71
CC1CCN(Cc2nc(N3CCC3)c3c4c(sc3n2)CCC4)CC1	i	1.1	95
O=C(Nc1ccc(Oc2ccc(Br)cc2)cc1)C1CC(=O)N(C2CC2)C1 (stereo not drawn)	i	0.88	81
CCCCCNC(=O)Nc1cc2c(cc1Br)OCCO2	i	0.9	91
CN(Cc1cnn(C)c1)c1ccc([N+](=O)[O-])cc1Cl	i	0.92	89
CONC(=O)c1nn(-c2ccc(F)cc2)c2c1CCC2	i	1	98
CN1CCc2nc(NC(=O)CN3C(=O)C4CCCCC4C3=O)sc2C1 (stereo not drawn)	i	1	97
N#C/C(=C/c1ccc(N2CCOCC2)cc1)c1nnc2n1CCCCC2	i	0.99	87
COC(=O)c1oc(CN2CCc3sccc3C2)cc1C	i	1	96
O=S(=O)(NC1CCSc2ccccc21)c1ccc(S(=O)(=O)N2CCOCC2)cc1 (stereo not drawn)	i	1	81
CCCCCCCCCCCCCCCC(=O)OCC(O)[C@H]1OC(=O)C(O)=C1O (stereo partly drawn)	i	/	/	total CFTR fold 25 µM=1.1;total CFTR viability 25 µM=105

Looked up by compound from the entries so far, 2 records:
SMILES	total CFTR	total CFTR fold 10 ug/mL	total CFTR viability 10 ug/mL	others
N#CCSc1nncn1C1CC1	i	1	99
CO[C@@]1(NC(=O)Cc2cccs2)C(=O)N2C(C(=O)O)=C(COC(N)=O)CS[C@@H]21	i	/	/	total CFTR fold 25 µM=1;total CFTR viability 25 µM=71

The list goes on:
SMILES	total CFTR	total CFTR fold 10 ug/mL	total CFTR viability 10 ug/mL	others
CC1CCN(S(=O)(=O)N2CCN(Cc3nnsc3Cl)CC2)CC1	i	1	99
O=C(O)/C=C/c1ccco1	i	1.1	101
COc1cc(/C=C2\N=C(c3ccc4c(c3)OCO4)OC2=O)cc2c1OCO2	i	1.1	101
COc1cc(OC)cc(C(Nc2ccc3nnc(C(F)(F)F)n3n2)c2nccn2C)c1 (stereo not drawn)	i	1	104
Clc1ccccc1Nc1nc(NCc2ccco2)c2ccccc2n1	i	0.88	98
Cc1cc(NC(=O)C(C)Sc2nc(C)c(C)n2C2CCCC2)no1 (stereo not drawn)	i	1.1	84
Cc1ccc2c(c1)CCC2N (stereo not drawn)	i	0.95	93
CCOC(=O)c1sc(NC(=O)N(C)CC(=O)NC(C)(C)C)c(C(=O)OCC)c1C	i	0.95	91
CN(CCC#N)S(=O)(=O)c1ccc(Cl)s1	i	1.1	108
COc1ccc(OC)c(C(C)NCC(O)c2ccccc2)c1 (stereo not drawn)	i	1	92
CC1(C(=O)NCC(F)(F)F)CC1(Cl)Cl (stereo not drawn)	i	1.1	97
COC(=O)C1=C(C)NC(=S)NC1c1ccc(Oc2ccc(C(C)(C)C)cc2)c([N+](=O)[O-])c1 (stereo not drawn)	i	0.83	98
CCOC(=O)O[C@]1(C(=O)COC(=O)CC)CCC2C3CCC4=CC(=O)C=C[C@]4(C)C3[C@@H](O)C[C@@]21C (stereo partly drawn)	i	/	/	total CFTR fold 25 µM=1;total CFTR viability 25 µM=131
N[C@@H](CC(=O)N1CCn2c(nnc2C(F)(F)F)C1)Cc1cc(F)c(F)cc1F	i	/	/	total CFTR fold 25 µM=1.1;total CFTR viability 25 µM=113
O=C(N1CCN(c2ccccc2)CC1)N1CCN(c2ccccc2)CC1	i	1.1	96
c1ccc2c(N3CCN(C4CCCC4)CC3)ncnc2c1	i	1.1	91
COCCN1C(=S)NC(c2ccc(OCCC(=O)O)cc2)C(C(=O)OC)=C1C (stereo not drawn)	i	1.1	91
C=CCn1c(SC(C)C(N)=O)nc2ccsc2c1=O (stereo not drawn)	i	0.94	88
Cc1cc(SCc2cc(Br)cc3c2OC(c2ccccc2)OC3)n2c(nc3ccccc32)c1C#N (stereo not drawn)	i	1	114
COc1ccc(S(=O)(=O)NC2CCCC2)cc1F	i	0.91	103
Cc1cnc(C(=O)OCC(=O)N2CCN(C(=O)COC(=O)c3cnc(C)cn3)CC2)cn1	i	1	93
C=C(C)Cn1cnc2scc(-c3ccc(C)s3)c2c1=O	i	1.1	93
O=C(NCCc1ccc2c(c1)OCCO2)C12CC3CC(CC(C3)C1)C2	i	1	87
Cc1cc(C(C)(C)C)cc(C)c1CC1=NCCN1	i	/	/	total CFTR fold 25 µM=0.92;total CFTR viability 25 µM=105
CSc1ccc(CN(C)CN2C(=O)C(=O)c3cc(F)ccc32)cc1	i	0.95	88

Continued.
SMILES	total CFTR	total CFTR fold 10 ug/mL	total CFTR viability 10 ug/mL	others
CCCn1c(=O)n(C)c(=O)c2c(SCCC(=O)Nc3ccnn3C3CCCC3)nc(C(C)C)nc21	i	0.94	101
C=CCNC(=O)COc1ccc(C2SCCS2)cc1	i	1	96
CC1CCCCC1NC(=O)CCCn1cnc2c1c(=O)n(C)c(=O)n2C (stereo not drawn)	i	1	82
CS(=O)(=O)N1CCCCC1C(=O)NC1CCCCCCC1 (stereo not drawn)	i	0.92	94
COc1ccc(C2CCCN2S(=O)(=O)N2CCCC(C)C2)c(OC)c1 (stereo not drawn)	i	1	97
Cc1ccc(Nc2nc(N)nc(CSc3nnc(-c4ccco4)o3)n2)cc1	i	1	85
CCN(CC(=O)NC(=O)NC)C1CC1	i	0.95	103
NCc1ccc(-n2cccn2)cc1	i	1.1	86
CC(COc1ccccc1)N(CCCl)Cc1ccccc1 (stereo not drawn)	i	/	/	total CFTR fold 25 µM=0.94&0.65;total CFTR viability 25 µM=98&61
O=C(NCC1CC1)C1CCCO1 (stereo not drawn)	i	0.92	110
O=C(N1Cc2cc3c(cc2C2(CCCC2)C1)OCCO3)C12CC3CC(CC(C3)C1)C2	i	0.97	85
CC1CN(S(=O)(=O)N2CCN(c3ccccc3Cl)CC2)CC(C)O1 (stereo not drawn)	i	0.95	98
CCOC(=O)c1c(C)[nH]c(C(=O)OCC(=O)N(C)CC(=O)NC(C)(C)C)c1C	i	1.1	106
C=CCN(Cc1ccc(Cl)s1)CN1C(=O)NC(CC(C)C)C1=O (stereo not drawn)	i	1.1	71
CCOC(=O)c1c(C)[nH]c(C)c1C(=O)CSc1nnc(N)s1	i	0.99	86
NC(=O)NS(=O)(=O)c1ccc(N)cc1	i	/	/	total CFTR fold 25 µM=1.1;total CFTR viability 25 µM=88
C=C(C)CN1CCN(S(=O)(=O)c2ccc(S(N)(=O)=O)cc2)CC1	i	0.84	89
Cc1cc2c(o1)CC(C)(C)CC2NC(=O)c1ccc(S(=O)(=O)N2CCCC2)o1 (stereo not drawn)	i	0.95	90
Cc1cc(C(=O)CN2C(=O)c3ccc([N+](=O)[O-])cc3C2=O)c(C)n1-c1ccc2c(c1)OCCO2	i	1	92
CC(C)CN(CC(F)(F)F)S(=O)(=O)c1ccc2c(c1)OCCO2	i	0.98	100
O=C1NCN(c2ccccc2)C12CCN(CCCC(c1ccc(F)cc1)c1ccc(F)cc1)CC2	i	/	/	total CFTR fold 25 µM=0.8;total CFTR viability 25 µM=63
O=S(=O)(Nc1ccc(I)cc1)c1ccccc1OC(F)(F)F	i	0.89	80
O=c1cc(CSC2CCCC2)c2c(ccc3ccccc32)o1	i	0.94	91
NC(=O)c1ccc(S(=O)(=O)N2CCN(C(=O)OCC(F)(F)F)CC2)o1	i	0.96	97
O=C(O)c1cc(S(=O)(=O)N2CCOCC2)ccc1I	i	1.1	103

The closing 7 entries of the part before open the next one.
SMILES	total CFTR	total CFTR fold 10 ug/mL	total CFTR viability 10 ug/mL	others
Cc1cc(C(=O)CN2C(=O)c3ccc([N+](=O)[O-])cc3C2=O)c(C)n1-c1ccc2c(c1)OCCO2	i	1	92
CC(C)CN(CC(F)(F)F)S(=O)(=O)c1ccc2c(c1)OCCO2	i	0.98	100
O=C1NCN(c2ccccc2)C12CCN(CCCC(c1ccc(F)cc1)c1ccc(F)cc1)CC2	i	/	/	total CFTR fold 25 µM=0.8;total CFTR viability 25 µM=63
O=S(=O)(Nc1ccc(I)cc1)c1ccccc1OC(F)(F)F	i	0.89	80
O=c1cc(CSC2CCCC2)c2c(ccc3ccccc32)o1	i	0.94	91
NC(=O)c1ccc(S(=O)(=O)N2CCN(C(=O)OCC(F)(F)F)CC2)o1	i	0.96	97
O=C(O)c1cc(S(=O)(=O)N2CCOCC2)ccc1I	i	1.1	103
Cc1cc(C2CCCCC2)n(O)c(=O)c1	i	/	/	total CFTR fold 25 µM=1.1;total CFTR viability 25 µM=84
CC1CC1c1ccc(/C=C/C(=O)N2CCN(S(=O)(=O)N(C)C)CC2)o1 (stereo not drawn)	i	0.88	95
CC(C)CN(C(=O)C(C)C)c1c(N)n(CC(C)C)c(=O)[nH]c1=O	i	1.1	97
O=C(O)c1ccc(C(F)(F)F)[nH]c1=O	i	0.99	102
CON(C)C(=O)c1sc(-c2ccsc2)nc1C	i	1.1	91
CC(Oc1ccc(C(=O)/C=C/c2cc(F)ccc2F)cc1)C(=O)O (stereo not drawn)	i	0.92	97
Brc1cccc(OCCSc2nc(-c3cccs3)c(-c3cccs3)[nH]2)c1	i	1.1	85
S=c1nc(/C=C/c2ccccc2)[nH]n1CN1CCCC1c1cccnc1 (stereo not drawn)	i	1	97
Cn1cc(S(=O)(=O)NC2(c3ccc4c(c3)OCCO4)CCCC2)c(=O)n(C)c1=O	i	1.1	94
C[C@H]1CC2C([C@@H](O)C[C@@]3(C)C2CC[C@]3(O)C(=O)CO)[C@@]2(C)C=CC(=O)C=C12 (stereo partly drawn)	i	/	/	total CFTR fold 25 µM=1.1;total CFTR viability 25 µM=100
O=C(NCc1ccc2c(c1)OCCO2)NC1CC2CC1C1CCCC21 (stereo not drawn)	i	0.98	94
Cc1ccc(C(=O)OCC(=O)c2cc(C)n(-c3ccc4c(c3)OCCO4)c2C)s1	i	1	85
Cc1cc(NC(=O)c2ccco2)sc1C(=O)N1CC(C)OC(C)C1 (stereo not drawn)	i	1	93
CCn1c(SCc2cc(-c3cccs3)on2)nnc1-c1ccco1	i	1.1	95
O=[N+]([O-])c1cc(C(F)(F)F)ccc1NCCNS(=O)(=O)N1CCOCC1	i	0.93	88
CCc1cc(-n2ccnc2)n2c(nc3ccccc32)c1C#N	i	1.1	88
CC(C)(C)NCCCNc1ccc([N+](=O)[O-])cc1C#N	i	1.1	96
CC(=O)c1ccc(OCC(=O)c2cc(C)n(-c3ccc4c(c3)OCO4)c2C)cc1	i	0.85	72
CCOC(=O)/C(=C/c1ccsc1)C1=Nn2c(C)nnc2SC1	i	1.1	76
Cc1csc(CNC(=O)C(C)(C)C)n1	i	1	101
O=C(NCC12CC3CC(CC(C3)C1)C2)N1CCN(C(=O)N2CCCCC2)CC1	i	1	102
O=S1(=O)CCC(N2CCN(S(=O)(=O)c3ccc(C(F)(F)F)cc3)CC2)C1 (stereo not drawn)	i	0.97	103
CN(C)S(=O)(=O)N(C)Cc1cccc(C#N)c1	i	1	100
Fc1cccc(-n2nnnc2SCc2cn3ccccc3n2)c1	i	0.87	93
COc1cccc2c1OCCC2=O	i	1.1	94

(list continues)
SMILES	total CFTR	total CFTR fold 10 ug/mL	total CFTR viability 10 ug/mL	others
Cn1c([N+](=O)[O-])cnc1COC(N)=O	i	/	/	total CFTR fold 25 µM=0.85;total CFTR viability 25 µM=86
OCc1cc(C(O)CNCCCCCCOCCCCc2ccccc2)ccc1O (stereo not drawn)	i	/	/	total CFTR fold 25 µM=1.1;total CFTR viability 25 µM=83
CN(C)S(=O)(=O)c1ccc(CN2C(=O)NC(C)(c3ccco3)C2=O)o1 (stereo not drawn)	i	0.98	97
O=C1c2ccccc2C(=O)N1CN1CCc2ccccc2C1	i	0.91	89
Cc1ccc(CNC(=O)c2ccc(Br)o2)n1C	i	0.99	100
Clc1ccc(-n2nnnc2SCc2ccccn2)cc1	i	1	94
